Compound activity: PubChem, SRMLSC
H5N1 antiviral = antiviral screen in MDCK cells, H5N1 avian flu; cytopathic effect, luminescence, 72 h; hits give high values; no value below 0 was filed and about half of the inactive calls have no number; reference of the scale not given here; inhibition, % at 50 µM; 96,000 compounds, 0.07% hits; in the data active means inhibition above about 25%
* marks the source's active call; other numbers are inactive results; i = inactive. A portion of the library; rates above refer to the full screens.

Molecule,H5N1 antiviral
COc1ccc(C2=CC(c3cc(OC)c(OC)c(OC)c3)NC(=S)N2)cc1 (stereo unspecified),i
CC(=O)c1ccc(OCC(O)Cn2nnc3ccccc32)cc1 (stereo unspecified),0.2
CCn1cnc2c1c(=O)n(Cc1csc(-c3ccccc3)n1)c(=O)n2Cc1ccccc1,0.3
CCOC(=O)CCNC(=O)CNC(=O)OCc1ccccc1,0.7
O=C(Cc1ncc(C(F)(F)F)cc1Cl)Nc1ccc(F)cc1,i
CCCNS(=O)(=O)c1ccc(CCC(=O)NCc2cccnc2)cc1,1.9
O=C1Nc2ccccc2C12OCCCCO2,0.2
Cc1ccc2c(c1)nnn2C1CCN(CC(=O)N2c3ccccc3CC2C)CC1 (stereo unspecified),i
c1ccc(-c2ccc(-c3csnn3)cc2)cc1,i
CN(c1ccc([N+](=O)[O-])cc1C(=O)Nc1ccccc1)C1CCCCC1,i
COC(=O)c1cc(-c2c[nH]c3ccccc23)n[nH]1,1.9
O=C(O)CCc1ccc(-c2ccc(Br)cc2)n1CC(=O)O,0.7
CCC(C(=O)N1CCN(c2ccccn2)CC1)n1nc(C)n2c(cc3occc32)c1=O (stereo unspecified),0.4
CCOC(=O)N1CCN(C(=O)C(CC)n2nc(C)c3sc4ccccc4c3c2=O)CC1 (stereo unspecified),i
Cc1ccc(-c2nnc(SCC#N)n2N)cc1,i
CSc1nsc(SCC(=O)Nc2cccc(C(C)=O)c2)n1,i
CC(C)n1cc(/C=N\NC(=O)c2cc3c(ccc4ccccc43)o2)c2ccccc21,2.1
c1coc(CNc2nc3nonc3nc2NCc2ccco2)c1,3.6
CCOC(=O)c1cc(NC(=O)N2CCOCC2)c(C)nc1C,0.4
CCC(C)NC(=O)CSc1nc2ccsc2c(=O)n1-c1ccc(OC)cc1 (stereo unspecified),i
CCC(=O)N(CCO)Cc1cc2ccc(C)c(C)c2[nH]c1=O,i
C/C(N)=C(/C#N)C(=O)COC(=O)CCSc1ccccc1,0.9
NC(=O)c1ccsc1NC(=O)CN1C(=O)C2CC=CCC2C1=O (stereo unspecified),i
O=C(NC1CCCCC1)NC1CCN(CC(=O)N2CCOCC2)CC1,0.3
Cc1cccc(C)c1NC(=O)CCCSc1nnc(-c2ccco2)n1-c1ccccc1,i
Cc1cccc(C)c1OCC(=O)N1CC2(C)CC1CC(C)(C)C2 (stereo unspecified),2.1
CCOC(=O)Cn1nnnc1C(CC)N(Cc1cccs1)Cc1cc2cc(C)ccc2[nH]c1=O (stereo unspecified),i
O=C1CC(c2ccccc2)CC(O)=C1C=NCCN1CCN(C(=S)Nc2cccc(Cl)c2)CC1 (stereo unspecified),0.6
Cc1onc(-c2ccccc2Cl)c1C(=O)Nc1nnc(-c2cccc([N+](=O)[O-])c2)s1,0.8
CC(C)(C)c1ccc(-c2csc(NNC3=NCCCCC3)n2)cc1,i
FC(F)(F)c1nc(-c2cccs2)ncc1-c1nnnn1-c1ccc(Cl)cc1,i
COc1ccc(OC)c(C(=O)CSc2nc3cccnc3n2C)c1,1.1
CCOc1ccc(S(=O)(=O)N2Cc3ccccc3CC2C(=O)NCCCn2ccnc2)cc1 (stereo unspecified),i
CC1(C)CC(=O)C=C(NCCN2CCN(C(=O)Nc3ccc(Cl)cc3)CC2)C1,1.4
CCn1c(N)nc2c1c(=O)n(C)c(=O)n2C,1.3
COc1cccc(-n2nc(C(=O)Nc3ccc4c(c3)OCO4)c3ccccc3c2=O)c1,0.8
CC1CCCC(C(=O)O)N1C(=O)CCSSCCC(=O)N1C(C)CCCC1C(=O)O (stereo unspecified),0.6
Cc1cc(C(F)(F)F)n2nc(-c3cnn(C)c3C(F)(F)F)c(Cl)c2n1,i
Cc1ccc(NC(=O)CN2C(=O)C(C)Oc3ccccc32)nc1 (stereo unspecified),i
CCCOC(=O)c1ccc(-c2c(C)noc2-c2ccc(OC)cc2O)o1,i
Cc1sc2nc(SCc3ccccc3)n(Cc3ccco3)c(=O)c2c1C,0.3
COc1ccc(-c2nnc(SCC(=O)NCc3cccs3)n2CC(C)C)cc1,i
COc1ccccc1NC(=O)C1=C(C)Nc2nnnn2C1c1cccc(Br)c1 (stereo unspecified),i
CCOC(=O)C1C2c3ccccc3O[C@@]1(C)N=C1SCC(=O)N12 (stereo partly specified),i
O=C(CN1CCN(Cc2ccc3c(c2)OCO3)CC1)c1c[nH]c2ccccc12,0.1
COc1cc(Cn2c(N)c(C#N)c3nc4ccccc4nc32)cc(OC)c1,i
Cc1cc(C)n(-c2nc3sc4c(c3c3nnc(SCC(N)=O)n23)CC(C)(C)OC4)n1,0.6
CC1(C)Cc2cccc(OCC(O)CNCc3ccccn3)c2O1 (stereo unspecified),1.8
N#CCSc1nc2ccc(N3CCOCC3)cc2c(=O)n1CCc1ccccc1,i
CC(C)(C)C(=O)NC1(C(F)(F)F)C(=O)Nc2c1c(=O)[nH]c(=O)n2Cc1ccco1 (stereo unspecified),i
COc1cc(C2Nc3ccccc3C(=O)N2c2ccccc2OC)ccc1O (stereo unspecified),0.1
COC(=O)/C=C(\C)NC(=O)c1ccccc1Cl,0.9
O=C(Cn1nnc(-c2ccccc2F)n1)Nc1cccc2ncccc12,1.9
CC(C)c1ccc(C(=O)CC2(O)C(=O)N(CN3CCOCC3)c3ccccc32)cc1 (stereo unspecified),1.3
CCOC(=O)C(C)N1C(=O)S/C(=C/c2cc(C)n(-c3ccccn3)c2C)C1=O (stereo unspecified),i
COc1ccc(CCN2C(=O)CCC2(C)C(=O)NCc2cccnc2)cc1OC (stereo unspecified),0.3

More records follow:
Molecule,H5N1 antiviral
CCOC(=O)N1CCN(c2cc(=O)n(C3CCCCC3)c(=O)[nH]2)CC1,i
CC(=O)Nc1nc(C)c(S(N)(=O)=O)s1,i
CCCCn1c(SCc2nc3ccccc3s2)nc2cc(S(N)(=O)=O)ccc21,5.8
CCN(Cc1ccccc1)C(=O)C1CCN(Cc2ccc(OC)c(OC)c2OC)CC1,i
Brc1ccccc1C1=Nn2c(nnc2-c2ccccc2)SC1,4.0
CC(=O)NCCn1c(C)cc2ccccc21,0.7
O=c1c2cnn(-c3ccccc3)c2nnn1/N=C/c1cccnc1,0.2
CCOc1ccc(OCC)c(NC(=O)C2CCN(c3ncccn3)CC2)c1,1.7
O=C(CN1C(=O)c2cccc3cccc1c23)Nc1ccc2c(c1)OCO2,i
CC1(c2ccccc2)NC(=O)N(CC(=O)Nc2cccc(C#N)c2)C1=O (stereo unspecified),i
Cc1c(N=Cc2c(O)n(C)c(=O)c3ccccc23)c(=O)n(-c2ccccc2)n1C,i
Cc1cc(=O)oc(C)c1C(=O)NCC(C)NC(=O)c1c(C)cc(=O)oc1C (stereo unspecified),0.2
CCOc1cc(S(=O)(=O)N2CCCC2)ccc1Cl,i
CCC(=O)N1CCc2cc(Br)cc(S(=O)(=O)CC(=O)OC)c21,1.7
C/C(Sc1nnc(Cc2ccccc2)o1)=C(/O)c1ccccc1,1.1
Cn1c(SCc2nc3ccccc3[nH]2)nnc1-c1cccnc1,0.8
Nc1ccc(Nc2nc(-c3ccncc3)cs2)cc1,0.8
CC1CCC(NC(=O)CN2CCC(n3nnc4cc(F)ccc43)CC2)CC1 (stereo unspecified),i
N#Cc1cn(-c2ccccc2)nc1-c1cc2ccccc2oc1=O,i
O=c1c2ccccc2nc(-c2ccco2)n1-c1nccs1,0.6
CC1(C)Cc2nc3oc4c(NCc5ccccc5)ncnc4c3cc2CO1,i
COc1ccc(N(Cc2ccccc2)C(=O)CSc2nnc(Cn3nnc4ccccc43)o2)cc1,0.9
CC(=O)Nc1ccc(-c2nnc(SCc3c(C)cc(C)cc3C)n2C)cc1,0.0
Cc1cc(C)n2nc(S(=O)(=O)N(CC(C)C)CC(C)C)nc2n1,0.8
CN1CCN(c2nc(C(N)=O)cc(-c3ccccc3)n2)CC1,2.7
COc1cc(/C=C(\NC(=O)c2ccccc2)C(=O)Nc2cccc(O)c2)c([N+](=O)[O-])cc1OC,i
Cc1ccccc1OCc1nnc(SCC(=O)Nc2ccc3c(c2)oc2ccccc23)n1C,i
c1cc(CNc2ccc(N3CCOCC3)cc2)ccn1,i
CCOc1ccccc1C1C(C(N)=O)=C(C)Nc2nc(-c3ccccc3Cl)nn21 (stereo unspecified),i
Cc1ccnc(NC(=O)Nc2ccc(F)cc2)c1,2.5
O=C1NCCCCC1NC1CC(=O)N(c2ccccc2)C1=O (stereo unspecified),0.8
O=C(Nc1ccc(N2CCN(Cc3ccccc3)CC2)cc1)c1cccnc1,i
CCN1C(=O)C2C(C1=O)N1C(c3ccccc3)C3C(=O)N(CC)C(=O)C3N1C2c1ccccc1 (stereo unspecified),0.3
CN=C1CC(C)(C)CC(=O)/C1=C(/O)CCC(=O)NC,i
O=C(NCC1CCC(C(=O)O)CC1)c1cccnc1 (stereo unspecified),1.1
O=C(NNC(=O)c1ccccc1Br)c1cccc(Cl)c1,1.6
CCOC(=O)c1cccc(S(=O)(=O)N(CCO)Cc2cc3cc(OC)c(OC)cc3[nH]c2=O)c1,1.0
COc1cc(/C=N/NC(=O)c2cccnc2)ccc1OC(=O)c1ccc2c(c1)OCO2,i
CCc1ccc2oc(-c3cccc(N)c3)nc2c1,0.1
CCOC(=O)/C=c1\s/c(=C(\C#N)C(=O)OCC)n(-c2ccccc2)c1=O,i
COc1ccc(-c2c3c(=O)n(C)c(=O)n(C)c3cn2N2CCOCC2)cc1,2.8
COc1ccc(C2N(c3cc(Cl)ccc3OC)C(=O)C3CCCN32)cc1 (stereo unspecified),i
c1coc(CNc2ncnc3sc4c(c23)CCCCC4)c1,2.7
CCc1nc(NCCCCCO)c2nnn(Cc3ccccc3F)c2n1,1.2
Cc1nc2cc(O)ccc2n1C,i
CC(CCc1ccco1)NC(=O)Cn1nc(Cc2ccncc2)c2ccccc2c1=O (stereo unspecified),0.1
Cc1ccc(CCN2CC(C(=O)NC3CCCC3)CC2=O)cc1 (stereo unspecified),i
CCOC(=O)Cn1nnnc1CN(Cc1cccs1)Cc1cc2cc(C)cc(C)c2[nH]c1=O,i
O=c1cc(O)sc2ccccc12,0.1
O=c1nc(-c2ccccc2)cc(-c2ccccc2)[nH]1,4.0
Cc1nc(SCC(=O)NCc2ccco2)c2c3c(sc2n1)CCCC3,i
Cc1nn(-c2ccccc2)c(Cl)c1C(=O)OC(C)C(=O)Nc1ccc2c(c1)OCO2 (stereo unspecified),0.0
CCOC(=O)c1c(N)sc(C(N)=O)c1C,i
COc1ccc(-n2nc(C(=O)NCC(=O)NCc3ccco3)c3ccccc3c2=O)cc1,i
Cc1cccc(N2C(=O)NC(=O)/C(=C\c3cnn(-c4ccccc4)c3)C2=O)c1,1.2
O=C(c1cccs1)N1CCc2c([nH]c3ccccc23)C1c1ccc(Cl)cc1 (stereo unspecified),i

Further compounds follow:
Molecule,H5N1 antiviral
Cc1nnc(-c2cnn(-c3ccccc3)c2N)n1Cc1ccccc1,0.9
Cn1c(C(N)=O)cnc1Sc1ncc(C(F)(F)F)cc1Cl,i
CCn1c(CNc2ccc(OC)cc2)nnc1SCC(=O)N1CCCc2ccccc21,i
N#Cc1c(/N=C/c2c(O)n(Cc3ccco3)c(=O)[nH]c2=O)sc2c1CCCC2,4.3
CC1(C)Cc2c(C#N)c(NCCCO)nc(-c3ccccc3)c2CO1,3.6
COC(=O)c1sc2ncccc2c1OCc1c(Cl)cccc1Cl,i
Cc1nnc(SCC(=O)N2CCC(c3noc4ccc(F)cc34)CC2)s1,0.8
CN(C)CCN1C(=O)C(O)=C(C(=O)c2cc3ccccc3o2)C1c1ccccn1 (stereo unspecified),i
CCN(CC)S(=O)(=O)c1ccc(S(=O)(=O)Nc2ccc3c(c2)oc2ccccc23)cc1,0.8
COC(=O)c1ccccc1NC(=O)C(C)NS(=O)(=O)c1ccc(OC)cc1 (stereo unspecified),0.5
CCn1c(C)cc2c(c1=O)C(c1ccccc1Br)C(C#N)=C(N)O2 (stereo unspecified),i
COc1ccc(C2C(C(=O)N3CCN(c4ccccc4F)CC3)c3ccccc3C(=O)N2C)cc1 (stereo unspecified),0.2
CCOC(=O)c1cc2c(N)c(C(=O)c3cc(C#N)c(SC)nc3C)sc2nc1C,i
COc1ccc(-c2nnc(SCc3nnc(-c4ccc(Cl)cc4)o3)n2-c2ccccc2)cc1,5.3
Cc1ccc(NC(=O)Cn2c(/C=C/c3ccccc3)nc3ccccc32)cc1C,i
